Assay outcomes deposited in PubChem by National Center for Advancing Translational Sciences (NCATS).
ClpP mod: qHTS Assay for Activators of ClpP; ATP-dependent Clp protease proteolytic subunit (Bacillus subtilis (strain 168)), P80244; purified B. subtilis ClpP, FRET peptide cleavage, 20 min; Potency, µM (top dose mostly 57.5 µM), without a hit: top-dose activity change, negative = active; actives 1.9% (n = 340,000); AID 651965, 2013; active = well fitted falling curve with a large enough effect; inconclusive = small, poorly fitted or top-dose-only effect; inactive = no such curve, though single readings can be large or run the other way; further: potency means the concentration at half of the fitted maximal effect; the source files actives as falling curves though it sought activators and does not explain the sign; nearly all actives have a fitted effect of over 65% in size; many hits overshoot -100%
Target sequence (P80244 whole entry, looked up): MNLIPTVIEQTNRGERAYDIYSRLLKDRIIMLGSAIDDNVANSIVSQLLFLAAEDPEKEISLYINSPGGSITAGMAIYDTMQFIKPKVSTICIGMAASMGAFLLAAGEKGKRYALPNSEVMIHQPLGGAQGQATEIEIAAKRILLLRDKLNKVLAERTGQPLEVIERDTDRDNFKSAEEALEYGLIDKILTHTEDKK
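FRET quenching reversal measured ClpP activation: 10 microg/mL B. subtilis ClpP at pH 8 with the FRET-FV decapeptide, read at 430 nm after 320 nm excitation. The 20-min minus 0-min signal was scaled between DMSO/no-enzyme wells and ADEP (5.8 microM final).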
gsp antagonist: qHTS for Antagonists of gsp, the Etiologic Mutation Responsible for Fibrous Dysplasia/McCune-Albright Syndrome: qHTS; actives 0.4% (n = 340,000); gsp-mutant cells, cAMP HTRF, 30 min; control for the full effect not named in the record; AID 624288, 2012; Potency, µM (titrated, usually from 76.9 µM), without a hit: at the top dose activity change, negative = inhibition, usual class: inhibitors; active = falling curve of any shape with a large fitted effect; inconclusive = falling curve, mostly with a smaller effect; inactive = flat or rising curve; cell line not stated here;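 further: intracellular cAMP measured with PDE inhibitor Ro 20-1724 present during compound exposure; potency means the concentration at half of the fitted maximal effect; on the % scale 0 is the no-effect control and ±100 the full control effect; nearly all actives have a fitted effect of over 65% in size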
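HTRF cAMP measurement after 30 min RT detection following 30 min, 37C compound treatment alongside […] (added as 300 uM solution) in G418-selected cells seeded at 2000/well and grown 16–24 h.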
D2 potentiator: Beta-Arrestin HTS for Positive Allosteric Modulators of the Human D2 Dopamine Receptor: Potentiators | D(2) dopamine receptor (Homo sapiens), P14416 | DiscoveRx D2 beta-arrestin cells, luminescence, 90 min; 100% = 57 uM dopamine signal | potentiation, % (concentration not given with the values) | actives 0.23% (n = 360,000) | AID 624464, 2012; active = potentiation of 50% or more; inconclusive = 30% to 50%; inactive = 30% or less;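 further: compound concentration not given in the record; tested on top of an EC20 dose of dopamine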
Target sequence (P14416 whole entry, looked up): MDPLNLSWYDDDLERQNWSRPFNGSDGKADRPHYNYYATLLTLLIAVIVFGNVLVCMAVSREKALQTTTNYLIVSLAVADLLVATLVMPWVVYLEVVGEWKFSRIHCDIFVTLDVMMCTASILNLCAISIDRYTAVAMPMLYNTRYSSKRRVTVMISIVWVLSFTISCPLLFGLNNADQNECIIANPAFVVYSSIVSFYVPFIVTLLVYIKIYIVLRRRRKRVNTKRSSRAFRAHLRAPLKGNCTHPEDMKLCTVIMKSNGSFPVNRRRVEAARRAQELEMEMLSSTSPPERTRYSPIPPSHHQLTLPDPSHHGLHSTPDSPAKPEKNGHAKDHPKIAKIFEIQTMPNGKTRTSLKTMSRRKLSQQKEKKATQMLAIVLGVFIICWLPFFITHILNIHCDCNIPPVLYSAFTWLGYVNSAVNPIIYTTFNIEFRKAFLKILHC
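PathHunter beta-arrestin assay in DiscoveRx D2 cells. Compounds were added with an EC20 of dopamine (50 nM final) for 90 min at 37 deg C. Luminescence was read 1 h after detection reagent, with 57 uM dopamine as the EC100 control.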
Sfp PPTase inh: qHTS Assay for Inhibitors of Bacillus subtilis Sfp phosphopantetheinyl transferase (PPTase) | Potency, µM, for inactives: max response, negative = inhibition, actives largely listed as inhibitors | AID 1490, 2009 | actives 3.5% (n = 310,000) | 4'-phosphopantetheinyl transferase ffp (Bacillus subtilis), Q9F4F7 | Biochemical Sfp PPTase activity, qHTS; active means well fitted inhibition curve with a large enough effect; inconclusive means small, poorly fitted or top-dose-only effect, or another doubt; inactive means no such curve, though single readings can be large or run the other way;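 further: the enzyme is Sfp with the accession as filed and its product quenches rhodamine fluorescence; potency means the concentration at half of the fitted maximal effect; 0% = enzyme reaction without inhibitor and -100% = no enzyme wells; top concentration of the series not given in the record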
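Reaction rates are the 30-min fluorescence difference (ex 525, em 598 nm) in wells containing 15 nM Sfp, 5 uM rhodamine-CoA and 12.5 uM BHQ-2-YbbR at pH 7.6 with 10 mM MgCl2.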
gsp agonist: qHTS for Agonist of gsp, the Etiologic Mutation Responsible for Fibrous Dysplasia/McCune-Albright Syndrome: qHTS; actives 0.13% (n = 340,000); Potency, µM (titrated, usually from 76.9 µM), inactives show at the top dose activation (cAMP increase), actives largely listed as activators; gsp mutant cells, cAMP HTRF, 30 min; control for the full effect not named in the record; active = well fitted activation curve with a large enough effect; inconclusive = small, poorly fitted or top-dose-only effect, or another doubt; inactive = no such curve, though single readings can be large or run the other way; cell line not stated here;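 further: phosphodiesterase inhibitor Ro 20-1724 added with compounds to block cAMP breakdown; potency means the concentration at half of the fitted maximal effect; nearly all actives have a fitted effect of over 60% in size; about a fifth of the inactives were tested at one dose only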
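Cells stably selected in G418 were plated at 2000/well, grown 16-24 hr, then given compounds in DMSO with the PDE inhibitor […] (300 uM solution added) for 30 min at 37C; cAMP was read by HTRF.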
Menin-MLL FL inh: qHTS Assay for Inhibitors Targeting the Menin-MLL Interaction in MLL Related Leukemias: Competition With Fluorescein Labeled MLL-derived Peptide; Fluorescence polarization, fluorescein-MLL peptide displacement from menin; 290,000 tested, under 10 active; FP activity change, % at 61.4 µM; AID 1766, 2009; inconclusive = falling polarisation curve, or a change in total fluorescence; inactive = total fluorescence flat and polarisation flat or rising; no compound was filed as active; the % refers to the polarisation; negative = inhibition;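 further: % of control where 0% means no effect; inhibitors lower the polarisation; unlabelled MLL peptide was the positive control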
TRPV1 PAM: HTS Assay for Compounds that Act as Potentiators of the Vanilloid Receptor 1 | TRPV1-expressing cells, Fluo-8 calcium influx, capsaicin EC20 potentiation; host cell line not named in the record; control for the full effect not named in the record | potentiation, % at 8.33 µM | actives 0.02% (n = 320,000) | AID 540277, 2011; active means potentiation above 80%; inconclusive means 30% to 80%; inactive means below 30%; further: 0% is about no effect
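Cells expressing TRPV1 were dye-loaded with Fluo-8 and read kinetically: 10 s baseline, 3 min after compound (agonist portion), then 2 min after EC20 capsaicin (allosteric enhancer portion). Calcium-bound dye fluorescence at 480/520 nm.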
The depositor's hits bear a star; ? = inconclusive; / = not tested or not shown; & = joins results of further samples; [ ] = dose if it differs, or a comment. Rows were taken by chance. Share with any hit: about 5.1%.

molecule	ClpP mod	gsp antagonist	D2 potentiator	Sfp PPTase inh	gsp agonist	Menin-MLL FL inh	TRPV1 PAM
CCCCn1nnnc1SCC(=O)Nc1ccc(F)cc1	-3.8%	5%	4	7%	6%	1.1	-9
O=C(CC(=O)NCCc1ccccc1)NCCc1ccccc1	/	9%	1	16%	16%	0.4	-3
COc1ccccc1Nc1cc(C(=O)NC2CCCC2)c2ccccc2n1	7.3%&76%	5%	-9	7%	?	/	-18
CCCNC(=O)N1CCN(S(=O)(=O)c2ccc(C)cc2)CC1	1.6%	12%	-17	-18%	-18%	-1.2	14
CCn1c(SCC(=O)NC2CCCCC2)nc2c(c1=O)SCC2	-1.5%	-8%	-3	9%	-53%[inhibitor]	/	-17
COc1ccc(CCNC(=O)c2c(Cl)ccc(Cl)c2OC)cc1OC	/	2%	1	37%	0%	-6.0	-4
COc1cccc(/C=C/C(=O)OCC(=O)NCc2ccco2)c1	?	0%	5	-12%	-12%	0.0	7
Cc1ccc(NC(=O)CN2CCN(CCN=CC3=C(O)CC(c4ccccc4)CC3=O)CC2)cc1 (stereo unspecified)	-0.4%	7%	-7	8%	10%	4.5	-20
CCOCCOC(=O)c1[nH]c2c(c1C)C(=O)CC(c1cc(OC)c(OC)c(OC)c1)C2 (stereo unspecified)	/	-26%	2	13%	-17%	-3.2	15
CC1CCN(Cc2cnc(Cl)s2)CC1	0.2%	1%	-1	5%	-21%	-3.0	-18
CCc1nnc(N2C(=O)c3cccc4cccc(c34)C2=O)s1	16µM*	1%[15.4 µM]	16	1%	18%	-1.2	4
Cc1cc(C(=O)OCC(=O)NCc2cccs2)ccc1[N+](=O)[O-]	-2.1%	2%	5	/	9%[15.4 µM]	/	/
COc1ccc(OC)c(NC(=O)CCNS(=O)(=O)c2cccc3nonc23)c1	/	12%	-8	16%	5%[15.4 µM]	-1.0	12
CCOc1ccc(-c2c(C(=O)N/N=C/c3cccnc3)nnn2-c2nonc2N)cc1	-4.5%	1%	-1	-10%	-23%	-3.5	-9
Cc1nc2cc(C(=O)NCc3ccc4c(c3)OCO4)ccc2n1-c1ccc(Br)cc1	-2.8%	-15%	-17	-7%	13%	0.9	-2
CCCOc1ccc2oc(=O)c3c(c2c1)CCCN3C(=O)CN1CCc2ccccc2C1	18µM*	-16%	-9	-18%	-42%[inhibitor]	3.3	-12
Nc1nc(CSc2ncn[nH]2)nc(Nc2ccc(F)cc2)n1	0.1%	2%	1	19%	?	0.6	-12
Cc1ccc(S(=O)(=O)N(CC(=O)Nc2ccc(C)cc2C)C(=O)N2CCN(C)CC2)cc1	/	12%	5	/	4%[15.4 µM]	/	-11
CS(=O)(=O)c1ccc(Cl)c(NC(=O)CCN2C(=O)NC3(CCCC3)C2=O)c1	/	13%	-4	/	10%	/	/
CNc1nnc(C(F)(F)F)s1	/	18%	-3	2%	-2%[15.4 µM]	5.5	?

Part of the list above, as labelled records:
Molecule: Nc1nc(CSc2ncn[nH]2)nc(Nc2ccc(F)cc2)n1
  ClpP mod: 0.1%
  gsp antagonist: 2%
  D2 potentiator: 1
  Sfp PPTase inh: 19%
  gsp agonist: ?
  Menin-MLL FL inh: 0.6
  TRPV1 PAM: -12

Molecule: Cc1ccc(S(=O)(=O)N(CC(=O)Nc2ccc(C)cc2C)C(=O)N2CCN(C)CC2)cc1
  ClpP mod: /
  gsp antagonist: 12%
  D2 potentiator: 5
  Sfp PPTase inh: /
  gsp agonist: 4%[15.4 µM]
  Menin-MLL FL inh: /
  TRPV1 PAM: -11

Molecule: CS(=O)(=O)c1ccc(Cl)c(NC(=O)CCN2C(=O)NC3(CCCC3)C2=O)c1
  ClpP mod: /
  gsp antagonist: 13%
  D2 potentiator: -4
  Sfp PPTase inh: /
  gsp agonist: 10%
  Menin-MLL FL inh: /
  TRPV1 PAM: /

Molecule: CNc1nnc(C(F)(F)F)s1
  ClpP mod: /
  gsp antagonist: 18%
  D2 potentiator: -3
  Sfp PPTase inh: 2%
  gsp agonist: -2%[15.4 µM]
  Menin-MLL FL inh: 5.5
  TRPV1 PAM: ?

(further entries)
molecule	ClpP mod	gsp antagonist	D2 potentiator	Sfp PPTase inh	gsp agonist	Menin-MLL FL inh	TRPV1 PAM
COc1ccc2nc(N3CCCC3)c(C#N)cc2c1	-1.7%	0%	6	19%	10%	?	0
Cc1ccc(S(=O)(=O)C2(C(=O)NCCc3ccccc3)CC2)cc1	-0.3%	-3%	-2	11%	-12%	0.9	7
CC(=O)c1c(C)[nH]c(C(=O)Nc2ccc(Cl)cc2)c1C	/	?	-13	-5%	?	1.8	-3
CC(=O)c1cccc(-n2nnnc2SCC(=O)Nc2ccccc2N2CCCCC2)c1	-0.2%	-12%	-9	5%	-11%	-1.4	9
CN(C)c1ccc(CNc2ccccn2)cc1	/	0%	-5	21%	0%	-0.5	-10
CC(C(=O)N1CCc2ccccc2C1)N(c1ccccc1)S(C)(=O)=O (stereo unspecified)	/	1%	-1	14%	-58%[inhibitor]	1.0	12
COc1ccc2[nH]c3c(c2c1)CCN1C(=O)C(CC(=O)NCc2ccco2)C[C@H](C(=O)N2CCCCC2)[C@@]31C (stereo partly specified)	-1.6%	-3%	-9	/	/	/	/
COc1ccc(C2=NOC(Cn3nc(C(=O)NCc4ccc5c(c4)OCO5)cc3-c3ccccc3)C2)cc1 (stereo unspecified)	-4.6%	-8%	0	/	/	/	15
Cc1ccccc1OCCn1cnc2c(N)ncnc21	-2.3%	-6%	13	4%	10%	-0.3	25
O=C(Cn1c(=S)[nH]c2ccccc2c1=O)NCCc1ccccc1	/	-15%	1	15%	4%[15.4 µM]	-0.2	25
COc1ccc(N2Cc3ccc(C(=O)N/N=C\c4ccc(O)cc4O)cc3C2)cc1	/	/	/	-13%	/	?	-7
N#CC(c1ccc([N+](=O)[O-])cc1)C(CC(=O)c1ccccc1)c1ccccc1 (stereo unspecified)	/	-4%	5	/	10%	/	/
Cc1onc(-c2ccccc2Cl)c1C(=O)N(Cc1ccc(N(C)C)cc1)C(C)C	2.5%	-12%	-2	/	19%	/	/
COc1ccc2[nH]c(O)c(N=NC(=N)N)c2c1	-5.6%	-1%	-5	9%	0%	-0.9	8
COC(=O)CCC(=O)OC1(C)C(=O)C=C2C=C(C3CC3)N(CC(C)C)C=C2C1=O (stereo unspecified)	/	/	/	?	/	?	?
O=C(Nc1c(C(=O)N2CCOCC2)cnn1-c1ccccc1)c1ccccc1F	-12%	13%	-8	15%	1%[15.4 µM]	-0.9	12
Cc1nn(Cc2ccc(F)cc2)c(C)c1NC(=O)C1c2ccccc2Oc2ccccc21	0.6%	-16%	-7	-22%	0%[15.4 µM]	-1.6	-13
CC(C)c1ccc(CN2C(=O)c3ccccc3S2(=O)=O)cc1	/	-3%	-2	-1%	8%	-1.3	2
CC(C)OC(=O)c1cccnc1N1CCN(c2ccc(F)cc2)CC1	0.6%	-14%	-10	9%	1%	4.0	-8
O=C1N[C@H](Cc2ccccc2)C(=O)N[C@H]1Cc1cn(S(=O)(=O)c2ccccc2)c2ccccc12	0.6%	-4%	2	/	/	/	/
Cc1oc(-c2ccccc2Cl)nc1CS(=O)CC(=O)NCc1ccco1 (stereo unspecified)	-2.2%	2%	-8	19%	-4%	/	0
CCOCCCN(C(=O)Nc1ccc(CC)cc1)C1CCN(C(C)=O)CC1	0.4%	-3%	10	23%	-7%	2.2	1
Cn1c2ccccc2c(=O)c2c(=O)n(Cc3ccccc3)c(-c3ccc(F)cc3)nc21	1.2%	-25%	-16	15%	-4%[15.4 µM]	4.8	4
COc1ccc(S(=O)(=O)Nc2cc(C)on2)cc1OC	-0.4%	-6%	?	8%	0%	-1.9	-26
O=C(CSc1ccc(-c2ccco2)nn1)NC1CCCC1	/	5%	-4	-20%	-3%[15.4 µM]	3.4	10
CCOC(=O)COc1cc([N+](=O)[O-])cc2cccnc12	/	1%	0	-3%	2%	5.1	3
Cc1cc(C)cc(N(CCC(=O)Nc2nnc(C)s2)S(=O)(=O)c2ccc(Cl)cc2)c1	0.9%	-4%	-11	8%	15%	0.2	?
CSCC[C@H](NC(=O)C1CCN(C(=O)[C@H](Cc2ccccc2)NS(=O)(=O)c2ccc(C)cc2)CC1)C(=O)O	-0.3%	17%	-5	12%	-1%[15.4 µM]	5.9	-9
COC(=O)c1cc(S(=O)(=O)N2CCN(c3ccccc3)CC2)c[nH]1	3.4%	2%	-6	15%	-7%	-1.6	-16
CCOC(=O)Nc1cccc(OCC(=O)Nc2ccc(OC)cc2OC)c1	-1.7%	-29%	-1	-4%	6%	1.5	-11
O=S(=O)(c1ccccc1)N1CCN(c2nnnn2-c2ccccc2)CC1	-1.1%	1%	7	27%	?	-1.4	-3
NC(=O)c1ccccc1Br	1.2%	14%	-3	2%&12%	?	3.5&1.7	-18
O=C(Nc1ccc(N2CCN(C(=O)c3ccccc3F)CC2)cc1)c1cncc(Br)c1	-0.9%	?	2	-9%	-13%	/	-7
